Vaccinia Venus: qHTS for Stage-Specific Inhibitors of Vaccinia Orthopoxvirus: Venus Reporter Primary qHTS | Vaccinia virus Venus reporter expression, fluorescence | Potency, µM (top dose mostly 36.5 µM), without a hit: at the highest dose activity change, negative = inhibition, hits mostly inhibitors | 0.46% of 330,000 active; active means well fitted inhibition curve with a large enough effect; inconclusive means small, poorly fitted or top-dose-only effect; inactive means no such curve, though single readings can be large or run the other way; tested in A549 cells; further: nearly all actives have a fitted effect of over 30% in size; inactives centre near -10
VACV mCherry inh: qHTS for Stage-Specific Inhibitors of Vaccinia Orthopoxvirus: mCherry Reporter Primary qHTS. Vaccinia virus mCherry reporter infection, fluorescence; about a quarter of the inactives have no number. Potency, µM (highest dose often 36.5 µM), for inactives: at the highest dose activity change, negative = inhibition, actives largely listed as inhibitors. 0.63% of 310,000 active. AID 720579, 2013; active = well fitted inhibition curve with a large enough effect; inconclusive = small, poorly fitted or top-dose-only effect; inactive = no such curve, though single readings can be large or run the other way; tested in A549 cells; further: nearly all actives have a fitted effect of over 35% in size; inactives centre near -10
* hit, by the source's call; i = inactive; ? = inconclusive; . = not tested or not shown; & = joins results of further samples; [ ] = another dose, or the depositor's remark. On the % scale 0 is the no-effect control and ±100 the full control effect; potency means the concentration at half of the fitted maximal effect.

Below each SMILES: Vaccinia Venus, VACV mCherry inh
CNC(=O)N(O)C1N(/N=C/c2ccccc2OC)C(=S)SC1(C)C (stereo not drawn)
  4%, -14%
CCOc1cccc2sc(N(CCCN(C)C)C(=O)c3ccc(S(=O)(=O)N(CC)Cc4ccccc4)cc3)nc12
  ?, ?
CCCCC(CC)C(=O)Nc1ncc([N+](=O)[O-])s1 (stereo not drawn)
  ?, 10µM*
CCOC(=O)[C@]12CCCC=C1N(Cc1cccc3ccccc13)C(=O)[C@H](CC(=O)NCc1ccccc1)C2
  -11%, -24%
COc1cc(Cn2c3ccc(NC(=O)CC(C)C(F)(F)F)cc3c(=O)n2C)ccc1F (stereo not drawn)
  -3%, 11%
O=C(Cc1ccccc1)NN=C1CCCC1
  -12%, -13%
c1cncc(-c2noc(-c3ccco3)n2)c1
  -17%, .
Cc1ccsc1C(=O)N1CCCCCC1(C)C(=O)NCC(C)C (stereo not drawn)
  4%, -6%
CCCCOC(=O)C1=C(C)Nc2nnnn2C1c1ccccc1Cl (stereo not drawn)
  ?, ?
Oc1ccc(C2NCc3ccccc3-n3cccc32)cc1Cl (stereo not drawn)
  -29%&-8%, -10%
COC(=O)[C@@H]1CCCN1Cc1ccc2c(c1)CN(Cc1ccccc1)CCO2
  -8%, -18%
CCN(CC)c1ccc(C(=O)Nc2cccc(F)c2)cc1
  ?, .
CC(C)[C@H](NS(=O)(=O)c1ccc2c(c1)OCCO2)C(=O)OCC(=O)Nc1ccccc1
  -4%, -18%
Cc1ccc(S(=O)(=O)N2CCN(c3ccc(C(F)(F)F)cc3[N+](=O)[O-])CC2)cc1
  ?, -26%
C[C@H](CO)N1C[C@H](C)[C@@H](CN(C)S(=O)(=O)c2cccs2)Oc2ccc(NC(=O)NC3CCCCC3)cc2C1=O
  -21%, i
CC(C)(C)NC(=O)CN(C(=O)CS(=O)CC(=O)Nc1ccc(F)cc1)c1ccccc1F (stereo not drawn)
  -5%, -1%
COc1ccccc1NC(=O)C(C)OC(=O)COc1cccc2c1OC(C)(C)C2 (stereo not drawn)
  -15%, -18%
COc1ccc(-c2oc3ccc(-c4ccc5c(c4)OCO5)cc3c2C#CC2(O)CCCCC2)cc1
  -27%, -21%
CCOc1ccc(-c2cccc(NS(=O)(=O)c3ccc(Cl)s3)c2)nn1
  0%, -10%
Nc1ccc(S(=O)(=O)N2CCc3ccccc32)cc1
  -10%, i
Cc1ccc(NC(=O)CCCCCCCCCCC2COCCO2)c(C)c1 (stereo not drawn)
  -9%, -14%
COCCNc1nc(Oc2cccc3ccccc23)c2sccc2n1
  -3%, i
CC(C)C(NC(=O)c1ccco1)C(=O)OCC(=O)N1CC(=O)Nc2ccccc21 (stereo not drawn)
  0%, -13%
CC(=O)c1c(C)[nH]c(C(=O)COC(=O)CN2C(=O)C3CCCCC3C2=O)c1C (stereo not drawn)
  -4%, i
Cc1cc(C(=O)Nc2ccc(C(=O)O)cc2)c(-c2ccccc2)o1
  6%, .
CCOc1ccc(NC(=O)CCn2ccnc2)cc1
  -6%, i
Cc1cccc(NC(=O)CSCC(=O)Nc2sccc2C#N)c1
  -4%, i
CN1CCN(CCOc2ccc(Cc3ccccc3)cc2)CC1
  -7%, i
O=C(Cc1ccc(Cl)c(Cl)c1)N1CCOCC1
  -12%, -13%
CCCNC(=O)C(Cc1ccc(C(F)(F)P(=O)(OCC)OCC)cc1)NC(=O)c1ccc(C#N)cc1 (stereo not drawn)
  -9%, -6%

Some values from the entries so far:
Entry for CCCNC(=O)C(Cc1ccc(C(F)(F)P(=O)(OCC)OCC)cc1)NC(=O)c1ccc(C#N)cc1 (stereo not drawn) in Vaccinia Venus: -9%
Entry for Nc1ccc(S(=O)(=O)N2CCc3ccccc32)cc1 in Vaccinia Venus: -10%
Entry for CC(C)(C)NC(=O)CN(C(=O)CS(=O)CC(=O)Nc1ccc(F)cc1)c1ccccc1F (stereo not drawn) in Vaccinia Venus: -5%

The results go on:
Below each SMILES: Vaccinia Venus, VACV mCherry inh
CCCn1c(N2CCN(S(=O)(=O)Cc3ccccc3)CC2)nc2ccccc21
  -14%, -24%
Cc1cccc(N/N=C(\C(N)=O)C2=NC(C)(C)Cc3ccccc32)c1
  ?, ?
Clc1ccc(-c2csc(-c3ccno3)n2)cc1
  -1%[7.34 µM], i[7.34 µM]
CCC(=O)N(CCC(Cc1ccccc1)c1ccco1)Cc1ccco1 (stereo not drawn)
  -13%, -2%
CCn1c(SCC(=O)Nc2cc(Cl)ccc2OC)nnc1C1CC1
  -10%, -19%
N#CC1=CC2CN(Cc3ccccc3)C1C1C(=O)N(c3ccccc3)C(=O)C21 (stereo not drawn)
  -2%, i
Cn1c(-c2sccc2OCc2ccc(Cl)cc2Cl)n[nH]c1=S
  0%, 3%
Cc1ccc(NC(=O)CSc2nnc(-c3ccc([N+](=O)[O-])cc3)o2)c(C)c1
  -7%, -12%
O=C(NCCc1ccccc1)c1cccc(N2C(=O)C3CC=CCC3C2=O)c1 (stereo not drawn)
  -5%, i
CCCCC1CC(CSC(=N)N)OC1=O (stereo not drawn)
  -9%, -18%
CCN(c1ccccc1C)S(=O)(=O)c1nnc(NC(=O)c2ccco2)s1
  0%, -7%
CCOc1ccc(NC(=S)N2CCC(N(C)CC3CCCO3)CC2)cc1 (stereo not drawn)
  -9%, -14%
COc1ccc(NC(=O)c2sc(=O)n(Cc3ccccc3C#N)c2C)cc1OC
  -15%, 6%
CCC[N+](CC#Cc1ccccc1)(CCC)CC(=O)OCC
  1%, -6%
Cc1ccccc1CN1CCCN(CC(=O)Nc2ccc3c(c2)OCCO3)S1(=O)=O
  -5%, -5%
CC(C)CNS(=O)(=O)c1ccc(CCC(=O)NCc2ccco2)cc1
  -2%, -17%
COc1ccccc1Nc1sc(C(=O)c2ccc3c(c2)OCO3)c(N)c1S(=O)(=O)c1ccccc1
  -7%, -20%
COc1ccc(C(=O)NCc2nnc(SCC(=O)Nc3nc4ccccc4s3)o2)cc1OC
  -3%, i
COc1ccc(NC(=O)CC2C(=O)N(c3ccc(F)cc3)C(=S)N2NC(=O)c2ccc(Cl)cc2)cc1 (stereo not drawn)
  -7%, -16%
CC(C)(C)OC(=O)C[C@@H]1C/C=C\C[C@H](CC(=O)NCCO)C(=O)N2CCC[C@H]2COC1=O
  -9%, i
CCOC(=O)C1CCCN(Cc2cc(=O)oc3cc(C)c(C(C)C)cc23)C1 (stereo not drawn)
  -8%, -4%
Cc1ccccc1Cn1nc(C)c(NC(=O)c2cc3nc(-c4ccco4)cc(C(F)(F)F)n3n2)c1C
  ?, .
COCCn1c(SCC(=O)NCc2ccc3c(c2)OCO3)nnc1C(C)C
  -6%, -15%
O=C(NNc1c(Cl)cccc1Cl)c1cccs1
  2%, i
COc1ccc(C(CNC(=O)c2ccc(NS(=O)(=O)c3cccc([N+](=O)[O-])c3)cc2)N2CCOCC2)cc1 (stereo not drawn)
  -8%, -15%
O=C(NCc1cccnc1)C(=O)NCC1OCCN1S(=O)(=O)c1ccc(Cl)cc1 (stereo not drawn)
  -16%, i
COc1cc([N+](=O)[O-])ccc1NC(=O)c1nc2ccccc2n(C)c1=O
  0%, -12%
CCn1c(SCC(=O)Nc2ccc3c(c2)OCCO3)nc2c(c1=O)SC(C)C2 (stereo not drawn)
  -9%, 22%
Cc1ccc(CNC(=O)CSc2nccn(-c3ccc(C)c(F)c3)c2=O)cc1
  -10%, i
Cc1ccc(CN2CCN(Cc3cccn3-c3ccccn3)CC2CCO)cc1 (stereo not drawn)
  3%, i

Shown with bars between the fields: three of the compounds above
SMILES | Vaccinia Venus | VACV mCherry inh
CC(C)(C)OC(=O)C[C@@H]1C/C=C\C[C@H](CC(=O)NCCO)C(=O)N2CCC[C@H]2COC1=O | -9% | i
CCOC(=O)C1CCCN(Cc2cc(=O)oc3cc(C)c(C(C)C)cc23)C1 (stereo not drawn) | -8% | -4%
Cc1ccccc1Cn1nc(C)c(NC(=O)c2cc3nc(-c4ccco4)cc(C(F)(F)F)n3n2)c1C | ? | .

(listing goes on)
Below each SMILES: Vaccinia Venus, VACV mCherry inh
Cc1ccccc1-n1ncc2c(SCC(=O)N3c4ccccc4CC3C)ncnc21 (stereo not drawn)
  ?, -23%
Cc1ccc2sc(N3CCN(C(=O)CCS(=O)(=O)c4ccc(F)cc4)CC3)nc2c1C
  ?, -20%
CC1=C(N2CCN(c3ncccn3)CC2)CCC1=O
  -2%, -19%
COc1ccc(C2CC(c3ccc(Cl)cc3)=NN2c2ccc(S(N)(=O)=O)cc2)cc1 (stereo not drawn)
  ?, ?
O=C(CN1CCC(C(=O)c2ccc(Cl)cc2)CC1)NC1CCCC1
  -6%, -11%
O=c1c2ccccc2sc2ccc(C#CC3(O)CCCCC3)cc12
  ?, -16%
CC(C)c1nnc(NC(=O)CCC(=O)N2CCN(c3ccccc3F)CC2)s1
  -9%, -2%
O=C(O)CSC1=NC(=Nc2ccc(Cl)cc2)C2(CCCCC2)N1c1cccc(C(=O)O)c1
  -3%, -23%
Nc1nc2ncc(=O)[nH]c2c(=O)[nH]1
  0%, i
COC(=O)C1CCN(C(=O)COC(=O)CNS(=O)(=O)c2ccc(SC)c([N+](=O)[O-])c2)CC1
  -3%, -9%
COc1ccccc1NC(=O)c1sc2nc(C)cc(C)c2c1N
  -10%, -13%
CC(C)Oc1ccc(Nc2ncnc3ccccc23)cc1
  -27%, -3%
COc1ccc(C(=O)CCC(C)(C)[N+](=O)[O-])cc1
  -12%, i
O=c1cc(CN2CCN(S(=O)(=O)c3ccc(Cl)cc3)CC2)nc2sc(-c3ccccc3F)nn12
  -16%, i
COC(=O)c1ccccc1NC(=O)CSc1nncn1-c1cccnc1
  1%, 8%
O=C1NC2(CCOc3ccccc32)C(=O)N1CC(=O)N(Cc1ccccc1)C1CCS(=O)(=O)C1 (stereo not drawn)
  -6%, -3%
O=c1c2cc(NC(=S)NCCN3CCCCCC3)ccc2nc2n1CCCCC2
  -3%, -11%
O=C(O)CCN(CC(=O)c1ccc(Cl)cc1)S(=O)(=O)c1ccc([N+](=O)[O-])cc1
  -11%, i
COc1ccc(OCCN2CCN(C(=O)c3ccc(OC)c(OC)c3)CC2)cc1
  -18%, i
COc1ccc(N2CCN(CCNC(=O)Nc3cc(Cl)ccc3Cl)CC2)cc1
  -7%, -28%
Cc1ccc(N2CC(C(=O)OCC(=O)c3ccc[nH]3)CC2=O)cc1 (stereo not drawn)
  -12%, -13%
CC(=O)c1ccc(C2CC(OCCF)=CC(=O)O2)cc1 (stereo not drawn)
  1%, -18%
CCCCNc1ccc2oc(-c3ccc(OC)cc3)c(-c3ccc(OC)c(F)c3)c2c1
  -7%, i
COC(=O)Cc1c(C)c2ccc(OCC(=O)c3ccc(OC)c(OC)c3)cc2oc1=O
  -4%, i
CCOC(=O)c1ccc(NC(=O)Nc2cccc(OCc3cc(=O)n4ccc(C)cc4n3)c2)cc1
  -18%, -6%
COC(=O)c1c(C)nc(C)c(C(=O)OC)c1-c1ccc(OC)cc1
  -21%, -2%
CCOC(=O)CN(C(=O)CSc1nnc2c(n1)[nH]c1ccccc12)c1ccccc1
  -18%, i
Cc1cc(C(=O)OCC(=O)N2CCc3ccccc32)ccc1[N+](=O)[O-]
  0%, -14%
CCN(CC)Cc1nc2nc(Cl)c(Cl)nc2[nH]1
  -11%, -11%
COc1ccc(CNC(=O)Cn2c(=O)ccc3cc(S(=O)(=O)N4CCCC4)ccc32)cc1
  -6%, 2%
Fc1ccc(COc2ccccc2C(=S)N2CCCC2)cc1
  -5%, -1%
Cn1c(SCC(=O)NC2CCCC2)nnc1-c1ccncc1
  -22%, i
CCOc1ccc(-c2nnc(SCC(=O)Nc3cc(C)on3)o2)cc1
  -18%, -14%
O=C(CCSc1nc(-c2ccco2)cc(C(F)(F)F)n1)Nc1cccc(O)c1
  -23%, -18%
Cc1ccc(N2CCN(C(=O)c3ccccc3)CC2)c(C)c1
  -20%, -15%
O=c1c2c(n3cnnc3n1-c1ccccc1)-c1ccccc1CC21CCCCC1
  -7%, .
COc1ccccc1NC(=O)c1cc2c(CO)cnc(C)c2oc1=Nc1ccccc1
  -3%, -1%
CC(C)OC(=O)Nc1ccc2c(c1)N(C(=O)CCN1CCOCC1)c1ccccc1CC2
  -7%, -11%
NCCc1ccc(OCc2ccccc2)c(OCc2ccccc2)c1
  ?, 18µM*
N#C/C(=C/c1ccccc1[N+](=O)[O-])c1nc(C2CC2)cs1
  -12%, -28%
Cc1noc(C)c1NC(=O)N(C)C[C@H]1Oc2ccc(NC(=O)Nc3ccc(C(F)(F)F)cc3)cc2C(=O)N([C@H](C)CO)C[C@@H]1C
  -8%, i
CCCCN(CC)CCNC(=O)c1cc2c(-c3ccc(Cl)cc3)nn(C)c2s1
  ?, 10µM*
N#CC(C#N)=NNc1ccc(OC(F)(F)F)cc1
  -4%[60.7 µM], -8%[60.7 µM]
CCCCNC(=O)C1(C)CCN1Cc1cc(C)ccc1C (stereo not drawn)
  5%, 14%
CCN(CC)C(=O)c1c(NC(=O)c2ccccc2)sc(C)c1C
  -14%, -16%
COc1ccc(NC(=O)/C(C#N)=C\c2cc(C)n(-c3ccc4c(c3)OCO4)c2C)cc1
  -7%, -22%

Whole records from above. Screens in order: Vaccinia Venus	VACV mCherry inh
Shown for `N#C/C(=C/c1ccccc1[N+](=O)[O-])c1nc(C2CC2)cs1` = -12%	-28%
Shown for `O=C(CCSc1nc(-c2ccco2)cc(C(F)(F)F)n1)Nc1cccc(O)c1` = -23%	-18%
Shown for `CC(C)OC(=O)Nc1ccc2c(c1)N(C(=O)CCN1CCOCC1)c1ccccc1CC2` = -7%	-11%
